Assay outcomes as filed in PubChem BioAssay.
D2 ag = activates the human D2 dopamine receptor; P14416; DiscoveRx PathHunter D2 beta-arrestin, luminescence, 90 min; 100% = 57 uM dopamine signal; activation, % (concentration not given with the values); hit rate 0.084% among 360,000; in the data active = activation above about 40%; inconclusive = about 15% to 40%; inactive = below about 15%; further: compound concentration not given in the record; the text of the record calls up to 30% inactive
Target sequence (P14416 whole entry, looked up): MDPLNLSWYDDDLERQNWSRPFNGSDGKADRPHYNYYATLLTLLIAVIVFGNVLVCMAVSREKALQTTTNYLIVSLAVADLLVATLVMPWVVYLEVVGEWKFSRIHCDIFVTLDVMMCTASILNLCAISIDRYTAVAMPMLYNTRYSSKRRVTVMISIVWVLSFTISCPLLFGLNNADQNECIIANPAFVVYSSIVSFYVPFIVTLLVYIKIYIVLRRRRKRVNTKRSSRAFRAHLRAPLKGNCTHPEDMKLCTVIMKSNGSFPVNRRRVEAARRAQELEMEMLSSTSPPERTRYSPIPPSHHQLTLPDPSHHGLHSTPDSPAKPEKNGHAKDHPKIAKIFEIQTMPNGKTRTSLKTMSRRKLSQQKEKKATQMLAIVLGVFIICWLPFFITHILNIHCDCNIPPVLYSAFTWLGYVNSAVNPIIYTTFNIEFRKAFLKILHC
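DiscoveRx PathHunter D2 beta-arrestin cells (2,100/well) attached overnight, then compound-stimulated 90 min at 37 C in HBSS/10 mM HEPES/0.1% Tween-20 buffer; beta-galactosidase complementation read by luminescence after 1 h at ambient temperature. Dopamine 57 uM final (EC100) as control.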
TRPML1 ag = activates the human TRPML1 channel | Q9GZU1 | TRPML1-expressing cells, Ca2+ dye fluorescence, FDSS; host cell line not named in the record; reference of the full effect not given here | activation, % (concentration not given with the values) | hit rate 0.12% among 410,000; in the data active = activation above about 50%; inconclusive = about 30% to 50%; inactive = below about 30%; further: 0% is about no effect; the text of the record puts the active cut at 80%
Target sequence (Q9GZU1 whole entry, looked up): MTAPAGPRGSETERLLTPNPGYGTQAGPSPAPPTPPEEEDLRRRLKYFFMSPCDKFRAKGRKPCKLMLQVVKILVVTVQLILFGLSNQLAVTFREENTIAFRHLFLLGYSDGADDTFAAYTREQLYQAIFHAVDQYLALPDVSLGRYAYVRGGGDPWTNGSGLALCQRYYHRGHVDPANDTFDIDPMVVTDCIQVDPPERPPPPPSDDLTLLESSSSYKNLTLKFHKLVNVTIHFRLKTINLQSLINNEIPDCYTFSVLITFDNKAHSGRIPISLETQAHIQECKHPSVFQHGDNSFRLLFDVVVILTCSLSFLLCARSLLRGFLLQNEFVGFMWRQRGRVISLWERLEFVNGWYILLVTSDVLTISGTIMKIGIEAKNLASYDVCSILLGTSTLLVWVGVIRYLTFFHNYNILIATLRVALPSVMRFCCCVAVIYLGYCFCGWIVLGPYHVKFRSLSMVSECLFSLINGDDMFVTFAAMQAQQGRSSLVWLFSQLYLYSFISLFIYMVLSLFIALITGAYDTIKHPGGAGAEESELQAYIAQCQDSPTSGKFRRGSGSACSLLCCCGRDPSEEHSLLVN
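Cells: TRPML1-DL, 1X Tet inducer, ~16 h at 37 degrees C/5% CO2. Dye: ABD Ca8 no-wash + quencher, 45-90 min RT. Read: 10 s baseline, compound add, 110 s agonist phase; 54-4 EC80 (4uM final), 110 s antagonist phase.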
PINK1 expr mod = modulators of PINK1 expression; AID 624263; PINK1 immunofluorescence, high-content cytometry, 24 h; hit rate 0.2% among 410,000; Potency, µM (highest dose often 76.6 µM), without a hit: at the top dose activation (PINK1 increase), most hits filed as activators; active = well fitted activation curve with a large enough effect; inconclusive = small, poorly fitted or top-dose-only effect; inactive = flat fitted curve, though single readings scatter; cell line not stated here;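 further: potency means the concentration at half of the fitted maximal effect; % of control where 0% means no effect; nearly all actives have a fitted effect of over 65% in size; a mitochondrial uncoupler was the plate control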
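PINK1 protein level read as immunofluorescence by microplate cytometer in a fixed, stained stable cell line after 24 h exposure to five compound concentrations, with CCCP as control.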
Six1-Eya2 inh = inhibitors of human Six1/Eya2 interaction; Q15475+O00167; AlphaScreen GST-Six1/His-Eya2 binding, biochemical; active compounds read low; control for the full effect not named in the record; activity change, % (test concentration not listed); hit rate 0.56% among 360,000; AID 651725; in the data active = activity change below about -65%; inconclusive = about -30% to -65%; inactive = above about -30%; further: on the % scale 0 is the no-effect control and ±100 the full control effect
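Compounds are tested against tagged Six1 and Eya2 proteins bridged by glutathione donor and nickel acceptor beads; after a one-hour incubation at 37 °C without light, AlphaScreen emission is recorded.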
D2 potentiator = human D2 receptor positive allosteric modulation; DiscoveRx D2 beta-arrestin cells, luminescence, 90 min; 100% = 57 uM dopamine signal; potentiation, % (concentration not given with the values); hit rate 0.23% among 360,000; AID 624464; active = potentiation of 50% or more; inconclusive = 30% to 50%; inactive = 30% or less;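 further: compound concentration not given in the record; tested on top of an EC20 dose of dopamine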
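PathHunter D2 cells, attached overnight at 37 deg C, received compound in DMSO plus dopamine at EC20 (50 nM final) for 90 min at 37 deg C. Beta-arrestin recruitment was read as luminescence after 1 h with detection reagent at ambient temperature.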
CtBP-E1A inh = blocks the CtBP interaction with E1A. AlphaScreen GST-E1A/His-CtBP binding, 1536-well; active compounds read low; control for the full effect not named in the record. activity change, % (test concentration not listed). hit rate 0.49% among 340,000. AID 651724; in the data active means activity change below about -65%; inconclusive means about -30% to -65%; inactive means above about -30%; further: on the % scale 0 is the no-effect control and ±100 the full control effect
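Steps: dispense buffer (Tris pH 8.0, NaCl 300 mM, TCEP 1 mM, BSA, Tween 20); add 5X protein mix (GST-E1A, His-CtBP, 125 nM each); pin 23 nL compound; 2 h at 37 °C, dark; add 5X beads (50 ug/mL); 1 h; read.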
* = called active by the depositor; u = inconclusive; x = not tested or not shown; & = joins results of further samples; [ ] = remark or other dose.

SMILES	D2 ag	TRPML1 ag	PINK1 expr mod	Six1-Eya2 inh	D2 potentiator	CtBP-E1A inh
Cc1ccc(C)c(-c2nnc(NC(=O)COc3ccccc3)o2)c1	-3.2	0.2	1.9%	-19.3	-8.5	-14.1
CCCCCCc1nc(C(N)=O)c2[nH]c(=O)n(-c3ccc(OC)cc3OC)c2n1	4.4	1.8	-2.0%	2.3	-8.0	-8.1
Cc1nn(-c2ccccc2)c(N2CCCC2)c1/C=N/NC(=O)c1cccc(S(=O)(=O)Nc2ccc(Cl)cc2)c1	-1.3	1.7	6.3%	-10.1	19.4	-0.3
O=C(O)c1cccc(-c2csc(C(O)c3cccc(Cl)c3)n2)c1 (stereo unspecified)	-2.2	-0.5	1.1%	-1.0	-4.6	-4.2
O=C(CN1CCN(Cc2ccc(Cl)cc2)C1=O)NCCN1CCCC1	-3.4	-0.4	0.1%	5.0	-6.6	2.5
COC(C[C@@H](O)C[C@H](O)[C@H](C)OCc1ccccc1)OC	-3.7	3.0	-0.6%	3.0	-4.7	3.3
COc1ccc(N2CCN(Cc3csc(C)c3-c3ccc(C)cc3)CC2)cc1	-5.3	2.0	u	u	-20.5	u
COc1ccc(Cl)cc1NC(=O)CN(C)CC(=O)Nc1cccc(S(=O)(=O)N2CCCC2)c1	-4.1	0.3	-0.3%	-17.6	-12.9	0.8
CCOc1ccc(C2CC(c3cccc(OC)c3)Nc3ncnn32)cc1 (stereo unspecified)	-5.2	0.9	-2.5%	0.9	-2.5	1.9
COc1ccc(CCN2CC(C(=O)NCCN3CCOC3=O)CCC2=O)cc1 (stereo unspecified)	0.2	0.7	0.3%	-5.1	-6.0	8.2

Looked up above.
O=C(CN1CCN(Cc2ccc(Cl)cc2)C1=O)NCCN1CCCC1 in D2 potentiator: -6.6
COc1ccc(CCN2CC(C(=O)NCCN3CCOC3=O)CCC2=O)cc1 (stereo unspecified) in PINK1 expr mod: 0.3%

(continued)
SMILES	D2 ag	TRPML1 ag	PINK1 expr mod	Six1-Eya2 inh	D2 potentiator	CtBP-E1A inh
COc1cc(-c2nc3n(n2)C(c2cccc(OC)c2OC)C2=C(CCCC2=O)N3)cc(OC)c1OC (stereo unspecified)	1.6	0.2	7.7%[38.3 µM]	-4.9	-3.2	-3.3
CC(C)C1CC2=C(C(=O)OC(C)(C)O2)C(c2ccc(F)cc2)O1 (stereo unspecified)	4.8	-0.1	4.2%	6.7	0.7	4.3
C=Cn1cc[n+](CC(=O)c2ccc(-c3ccccc3)cc2)c1	0.9	0.4	-0.9%	2.1	-6.4	1.5
O=C(Nc1cc(Cl)cc2c1-c1ccc(Cl)cc1C2O)C(Cl)Cl (stereo unspecified)	3.1	2.6	u	0.9	1.6	-26.8
CCOC(=O)C1(CC2CCCCO2)CCN(S(=O)(=O)c2ccc(OC)cc2)CC1 (stereo unspecified)	-6.3	-0.1	1.7%	4.8	-4.0	4.9
C[C@H](CO)N1C[C@H](C)[C@@H](CN(C)Cc2ccc(C(=O)O)cc2)Oc2c(NC(=O)c3ccncc3)cccc2C1=O	1.8	-0.4	1.2%	-3.6	1.4	-17.8
c1coc(CNc2nc3ccccc3s2)c1	2.0	0.5	-0.4%	0.0	-3.6	0.0
Cc1ccc(CSCC(=O)N/N=C/c2ccc(OCC(=O)Nc3ccc(C)cc3)cc2)cc1	-0.9	-0.7	-0.2%	0.9	6.7	8.9
CC1(C)OC(=O)C(=CNC(CO)C(=O)O)C(=O)O1 (stereo unspecified)	-2.0	-0.3	0.7%	21.3	-4.3	0.0
O=C(NNC(=O)c1ccccc1O)c1ccc(Br)cc1	-2.1	0.1	-1.0%	3.5	-5.4	-5.4
Cc1cc(F)cc(-c2cc(C(=O)NCc3cccc(Cl)c3)[nH]n2)c1	4.8	-0.3	7.1%	2.1	-1.5	4.1
O=C(CCc1nc2ccccc2c(=O)[nH]1)Nc1ccc(N2CCCCC2)cc1	1.2	0.4	2.3%	2.7	-10.4	3.4
CCCCCn1c(C)c2c(OCC)cccc(=O)c2c1C	-5.1	0.0	0.9%	-12.2	-15.4	x
O=C(CSc1nnnn1-c1cccc(F)c1)Nc1nc2ccccc2s1	4.1	2.0	18.0%	3.3	-14.4	7.0
CC(=O)N(Nc1ccccc1)c1ccccc1	-1.6	-0.1	2.8%	3.3	-1.1	-0.2
COc1ccc(N2CCN(C(=O)C(=O)c3c[nH]c4ccccc34)CC2)cc1	4.9	0.5	1.2%	-13.8	-4.0	x
COc1cccc(-c2cc(C(=O)NCc3ccco3)no2)c1	0.1	0.1	-14.5%[38.3 µM]	-5.7	-9.6	-2.8
Cc1ccc(S(=O)(=O)N2CCCCC2)cc1NC(=O)C1CC(=O)N(c2ccc3c(c2)OCCO3)C1 (stereo unspecified)	-4.7	0.4	0.9%	16.8	-31.9	21.4
Cc1nn(CCOc2cccc(Br)c2)c(C)c1[N+](=O)[O-]	2.1	1.6	0.7%	0.2	3.3	7.2
O=C(c1ccccc1)N1CCN(c2ccc([N+](=O)[O-])c(N3CCOCC3)c2)CC1	-6.8	-0.7	-1.6%	0.9	-8.7	-9.4
COc1ccc(C(=O)N2CCN(CCCc3ccccc3)CC2)cc1OC	-0.7	-1.5	-2.2%	-1.9	-15.7	7.0
COc1ccc(NC(=O)c2cc3c(=O)n(C)c4ccccc4c3s2)cc1OC	-1.2	1.7	9.8%	9.1	-7.4	-6.3
CCCCNC(=O)c1onc(CSc2ccccc2C)c1C(=O)O	-0.8	0.2	-0.4%	-2.5	-3.4	2.6
CC(C)CN1CCN(C(=O)CCc2nnc(Cc3c[nH]c4ccccc34)o2)[C@@H](C)C1=O	0.7	0.3	0.7%	4.9	-3.7	1.5
COc1cc(NC(=O)c2ccccc2-c2ccccc2)cc(OC)c1	1.9	3.5	2.4%	-0.6	-9.9	-1.6
CCCCCC(=O)Nc1cccc(S(=O)(=O)NC2=NCCC2)c1	0.3	-0.2	-1.4%	1.5	28.8	-0.9
Cc1ccc(C(=O)NCc2ccccc2CN2CCCC2)cc1S(=O)(=O)N1CCOCC1	-1.2	1.3	-0.6%	-2.6	-31.5	3.4
O=C(O)c1ccc(NC(=O)C2CC=CCC2C(=O)O)cc1 (stereo unspecified)	-1.5	0.5	3.0%	7.8	-31.4	8.0
Cc1cc(C)cc(NC(=O)Cn2c(=O)oc3cc(S(=O)(=O)N4CCC(C)CC4)ccc32)c1	7.4	0.8	1.6%	-6.1	5.2	-0.1
CCc1ccc(N2CC(C(=O)N3CCN(S(=O)(=O)c4cccc(F)c4)CC3)CC2=O)cc1 (stereo unspecified)	-0.9	-0.6	-1.0%	4.8	-10.1	1.0

An excerpt from above, showing only D2 ag:
SMILES | D2 ag
CCCCCC(=O)Nc1cccc(S(=O)(=O)NC2=NCCC2)c1 | 0.3
Cc1ccc(C(=O)NCc2ccccc2CN2CCCC2)cc1S(=O)(=O)N1CCOCC1 | -1.2

(cont.)
SMILES	D2 ag	TRPML1 ag	PINK1 expr mod	Six1-Eya2 inh	D2 potentiator	CtBP-E1A inh
CCc1ccc(C2c3[nH]c4ccccc4c3CCN2C(=O)c2cc(C)nn2C)cc1 (stereo unspecified)	-4.9	0.1	3.8%	-18.4	-2.9	-26.9
COc1ccc(C(=O)c2coc3c2C(=O)C(=O)c2ccccc2-3)cc1	u	0.1	-3.0%	-9.6	24.8	-13.0
CCOn1c(=O)c(=O)n(OCc2ccccc2)c2ccccc21	-0.1	-0.9	-2.4%	-6.0	1.6	11.8
O=C(O)CN(c1ccccc1F)S(=O)(=O)c1ccccc1	-2.0	-0.3	4.3%[38.3 µM]	0.5	-6.5	-1.0
COc1ccc(N(C(=O)CCl)C(C(=O)NCCc2ccccc2)c2cccs2)cc1 (stereo unspecified)	-1.0	0.6	-5.0%	-1.6	-21.6	-2.8
Cn1cc([N+](=O)[O-])c(C(=O)Nc2cc(Oc3ccccc3)cc([N+](=O)[O-])c2)n1	1.9	0.4	-3.4%	-9.2	4.0	3.5
COc1ccc2c(c1)nc(CN1CCN(CCO)CC1)n2C	-6.6	0.1	0.3%	0.9	-3.1	-0.3
COc1cccc(-c2nnc(SCC(=O)OC(C)C)n2Cc2ccco2)c1	-1.7	-0.1	-0.3%	5.1	1.8	0.0
CN(Cc1ccccc1)C(=O)COC(=O)/C=C/c1ccco1	-2.6	-0.5	0.5%	-6.0	-7.6	-4.1
O=C(Nc1ccc2c(c1)C(=O)N(CC1CCCO1)C2=O)c1cccc(Br)c1 (stereo unspecified)	0.2	2.5	x	-1.1	-1.4	-13.1
CCOc1ccc(Cn2ccnc2)cc1[N+](=O)[O-]	-4.6	-0.2	1.3%	1.2	1.3	-3.6
COc1ccc(NC(=O)COC(=O)CCNS(=O)(=O)c2ccc(Cl)cc2)cc1	-1.5	-0.5	1.0%	-2.4	-10.9	-4.1
Cc1nnc(SCC(=O)Nc2nccs2)n1N	3.6	1.6	-3.1%	7.2	6.4	-17.7
O=C(Cn1[nH]c(=O)c2ccccc2c1=O)NC1CCN(Cc2ccccc2)CC1	0.5	-0.5	-3.5%	2.6	-11.8	0.6
CCCCC(=O)OCc1c(-c2cccc(OC)c2)ncc2ccccc12	1.1	1.1	5.0%	11.7	-3.3	9.3
CCn1cc(CNC(=O)c2ccc3nc(Cc4ccccc4F)oc3c2)cn1	4.1	-0.4	0.3%	3.3	-1.7	-19.3
CCCCN(C(=O)c1ccc(C#N)cc1)c1c(N)n(CCC)c(=O)[nH]c1=O	-3.1	-0.1	3.0%	-0.1	-5.1	1.2
COc1ccc2[nH]cc(CCNC(=O)Nc3ccccc3C)c2c1	0.1	0.2&2.5	-0.8%&-0.6%	2.6	-6.8	-11.1
O=C(CSc1nnc(COc2ccc(Cl)cc2)o1)N1CCCC1	-3.9	-1.7	0.7%	3.8	2.3	-0.5
COc1ccc(-n2c(CN3CCC(C(N)=O)CC3)nc3ccc([N+](=O)[O-])cc3c2=O)c(OC)c1	-1.0	-0.7	0.5%	0.6	-0.9	12.4
CCN1C(=O)[C@H]2[C@@H](c3ccc(OC)cc3)N[C@]3(CCCN(Cc4ccc(C(F)(F)F)cc4)C3=O)[C@H]2C1=O	-7.1	0.1	2.3%	-0.6	-0.8	-8.5
CCN(CC)C(=O)c1cccc(-c2csc(C(O)c3cccc(Cl)c3)n2)c1 (stereo unspecified)	11.1	-0.5	3.1%	-11.2	0.8	0.0
Cc1nnc(SCC(=O)N2CCN(S(=O)(=O)c3ccc(Cl)cc3)CC2)[nH]c1=O	-1.8	-1.1	-0.1%	-0.4	-7.6	0.4
COc1ccc(C(C)(NC(C)=O)c2nc(-c3cccc(C(F)(F)F)c3)cs2)cc1 (stereo unspecified)	0.7	-0.3	0.8%	-2.0	0.2	1.5
COc1ccc(Nc2nnc(SCC(=O)N3CC(=O)Nc4ccccc43)s2)cc1	1.8	1.9	0.0%	u	-14.7	-22.3
CCCC(NS(=O)(=O)c1ccc(OC)cc1)C(=O)O (stereo unspecified)	-0.2	-0.8	-2.7%	2.0	-0.2	5.3
CC1(C(=O)NCC2CC2)CCN1C(=O)C1(c2ccc(Cl)cc2)CC1 (stereo unspecified)	-2.3	-0.2	1.0%	5.0	-14.3	8.3
COc1cccc(-n2c(SCC(=O)N3c4ccccc4CC3C)nnc2-c2ccco2)c1 (stereo unspecified)	-0.3	0.3	-1.5%	-15.1	-17.6	-8.9
